TRPV1 potentiator – HTS Assay for Compounds that Act as Potentiators of the Vanilloid Receptor 1; TRPV1-expressing cells, Fluo-8 calcium influx, capsaicin EC20 potentiation; host cell line not named in the record; control for the full effect not named in the record; potentiation, % at 8.33 µM; 320,000 tested, 0.02% active; AID 540277, 2011; active means potentiation above 80%; inconclusive means 30% to 80%; inactive means below 30%; note: 0% is about no effect
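Fluo-8 calcium influx in TRPV1-expressing cells, kinetic read (ex 480/em 520 nm). Compound added and read 3 min for agonist activity, followed by capsaicin at EC20 final and 2 min further read for enhancement.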
Menin-MLL FL inh – qHTS Assay for Inhibitors Targeting the Menin-MLL Interaction in MLL Related Leukemias: Competition With Fluorescein Labeled MLL-derived Peptide; Fluorescence polarization, fluorescein-MLL peptide displacement from menin; FP activity change, % at 61.4 µM; 290,000 tested, under 10 active; inconclusive = falling polarisation curve, or a change in total fluorescence; inactive = total fluorescence flat and polarisation flat or rising; no compound was filed as active; the % refers to the polarisation; negative = inhibition;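 note: % of control where 0% means no effect; inhibitors lower the polarisation; unlabelled MLL peptide was the positive control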
ClpP mod – qHTS Assay for Activators of ClpP | purified B. subtilis ClpP, FRET peptide cleavage, 20 min | Potency, µM (highest dose often 57.5 µM), inactives show at the highest dose activity change, negative = active | ATP-dependent Clp protease proteolytic subunit (Bacillus subtilis (strain 168)), P80244 | AID 651965, 2013 | 340,000 tested, 1.9% active; active = well fitted falling curve with a large enough effect; inconclusive = small, poorly fitted or top-dose-only effect; inactive = no such curve, though single readings can be large or run the other way; note: potency is the fitted concentration of half-maximal effect; the source files actives as falling curves though it sought activators and does not explain the sign; nearly all actives have a fitted effect of over 65% in size; many hits overshoot -100%
Target sequence (P80244 whole entry, looked up): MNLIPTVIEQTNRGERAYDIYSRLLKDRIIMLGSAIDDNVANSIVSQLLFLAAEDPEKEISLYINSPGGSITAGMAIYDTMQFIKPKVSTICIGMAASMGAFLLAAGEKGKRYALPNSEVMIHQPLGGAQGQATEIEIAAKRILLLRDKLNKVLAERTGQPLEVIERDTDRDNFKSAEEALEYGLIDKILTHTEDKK
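Buffer: 100 mM Tris/HCl pH8, 100 mM KCl, 0.05% low protease BSA, 2.5% glycerol, 0.01% Tween-20. ClpP 10 microg/mL final; 20 min RT; delta FRET normalized to ADEP and DMSO controls.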
PINK1 expr mod – A Quantitative High throughput Screen to Identify Chemical Modulators of PINK1 Expression; PINK1 immunofluorescence, high-content cytometry, 24 h; Potency, µM (top dose mostly 76.6 µM), for the others: at the highest dose activation (PINK1 increase), usual class: activators; 410,000 tested, 0.2% active; active = well fitted activation curve with a large enough effect; inconclusive = small, poorly fitted or top-dose-only effect; inactive = flat fitted curve, though single readings scatter; cell line not stated here;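 note: potency is the fitted concentration of half-maximal effect; % of control where 0% means no effect; nearly all actives have a fitted effect of over 65% in size; a mitochondrial uncoupler was the plate control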
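Compound titrations (5 concentrations, 24 h) on a stable cell line; DMSO and CCCP controls. Endpoint: fixed-cell PINK1 immunofluorescence with mitochondrial, cell and nuclear markers, scanned by microplate cytometer.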
TRPML1 inh – qHTS for Inhibitors of the Human Mucolipin Transient Receptor Potential 1 (TRPML1). AID 624415, 2012. activity change, negative = inhibition, % (no concentration beside the values). 390,000 tested, 0.02% active. TRPML1-inducible cells, Ca2+ dye fluorescence, FDSS; hits give low values; inhibition of EC80 agonist-evoked calcium signal; in the data active means activity change below about -50%; inconclusive means about -30% to -50%; inactive means above about -30%;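 note: stimulus is agonist 54-4 at its EC80 concentration; % is set by controls: 0 for no effect and ±100 for the full control effect; compound concentration not given in the record; the text of the record puts the active cut at -80%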
Target sequence (Q9GZU1 whole entry, looked up): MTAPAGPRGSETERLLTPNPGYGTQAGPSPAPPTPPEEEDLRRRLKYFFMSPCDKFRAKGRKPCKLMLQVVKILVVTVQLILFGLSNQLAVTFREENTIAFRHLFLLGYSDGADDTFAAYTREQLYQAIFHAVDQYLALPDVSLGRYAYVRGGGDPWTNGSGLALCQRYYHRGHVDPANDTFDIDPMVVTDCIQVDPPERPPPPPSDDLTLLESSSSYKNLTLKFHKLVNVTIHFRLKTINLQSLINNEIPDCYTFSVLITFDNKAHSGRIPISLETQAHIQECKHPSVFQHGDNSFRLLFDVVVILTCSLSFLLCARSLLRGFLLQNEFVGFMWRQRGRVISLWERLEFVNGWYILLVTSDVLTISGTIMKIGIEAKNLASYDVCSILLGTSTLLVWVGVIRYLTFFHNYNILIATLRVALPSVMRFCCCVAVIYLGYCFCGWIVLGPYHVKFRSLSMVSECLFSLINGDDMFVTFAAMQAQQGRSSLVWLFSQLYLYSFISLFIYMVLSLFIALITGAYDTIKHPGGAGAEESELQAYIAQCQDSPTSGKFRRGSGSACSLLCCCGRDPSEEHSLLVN
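Calcium fluorescence in TRPML1-DL cells induced overnight with Tet: a 110 s read after compound pin addition, then a 110 s antagonist read after challenge with 54-4 at 4 uM final (EC80).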
Sfp PPTase inh – qHTS Assay for Inhibitors of Bacillus subtilis Sfp phosphopantetheinyl transferase (PPTase); 4'-phosphopantetheinyl transferase ffp (Bacillus subtilis), Q9F4F7; Biochemical Sfp PPTase activity, qHTS; Potency, µM, without a hit: max response, negative = inhibition, usual class: inhibitors; 310,000 tested, 3.5% active; AID 1490, 2009; active = well fitted inhibition curve with a large enough effect; inconclusive = small, poorly fitted or top-dose-only effect, or another doubt; inactive = no such curve, though single readings can be large or run the other way;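 note: the enzyme is Sfp with the accession as filed and its product quenches rhodamine fluorescence; potency is the fitted concentration of half-maximal effect; 0% = enzyme reaction without inhibitor and -100% = no enzyme wells; top concentration of the series not given in the record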
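Step 1, compound plus 15 nM Sfp-PPTase, 15 min, room temperature. Step 2, add rhodamine-CoA (5 uM) and BHQ-2-YbbR (12.5 uM). Step 3, read 525/598 nm fluorescence at 0 and 30 min.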
TRPML1 ag – qHTS for Agonists of the Human Mucolipin Transient Receptor Potential 1 (TRPML1). 410,000 tested, 0.12% active. AID 624414, 2012. Mucolipin-1 (Homo sapiens), Q9GZU1. activation, % (no concentration beside the values). TRPML1-expressing cells, Ca2+ dye fluorescence, FDSS; host cell line not named in the record; reference of the full effect not given here; in the data active = activation above about 50%; inconclusive = about 30% to 50%; inactive = below about 30%; note: 0% is about no effect; the text of the record puts the active cut at 80%
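Tet-induced TRPML1-DL cells, 1,500 per well, cultured overnight, were loaded with a no-wash Ca2+ dye for 45–90 min. Calcium fluorescence was recorded on the FDSS for 110 s after compound addition, before the EC80 agonist (4 uM 54-4) was added.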
Active calls of the source: *; ? = inconclusive; . = no result given; & = joins results of further samples; [ ] = remark or other dose.

| canonical_smiles | Sfp PPTase inh | TRPV1 potentiator | TRPML1 ag | Menin-MLL FL inh | TRPML1 inh | PINK1 expr mod | ClpP mod |
| --- | --- | --- | --- | --- | --- | --- | --- |
| O=C(CSc1nc2[nH]ncc2c(=O)n1-c1ccccc1Cl)N1CCCC1 | 26% | 8 | 0.1 | -5.9 | 20 | 2.5% | 0.2% |
| CC(C)CSc1nc2ccccc2n1CC(N)=O | 8% | 10 | 0.1 | 2.0 | 6 | 7.7%[38.3 µM] | -0.5% |
| Cc1ccc(Oc2ncc(CN3CC(C)OC(C)C3)s2)cc1 (stereo not drawn) | 10% | -3 | 0.0 | 0.8 | -1 | 1.6% | 5.4% |
| CC(C)OC(=O)CN1C(=O)S/C(=C/c2ccc(N3CCCCC3)o2)C1=O | 8.9µM* | -2 | 5.6 | ? | 0 | . | -11% |
| O=C(COc1ccccc1)NCC(=O)N/N=C/c1ccco1 | -1% | 6 | -0.4 | -1.4 | -23 | -1.5% | -4.7% |
| CCC(CC)C1C(C#N)=C(N)Oc2n[nH]c(C)c21 (stereo not drawn) | 20% | -11 | -0.4 | 6.3 | 5 | 4.0%[38.3 µM] | 0.7% |
| Cc1ccc(S(=O)(=O)NCCNc2ccc([N+](=O)[O-])cc2)cc1 | 5% | -15 | -0.4 | -3.6 | 1 | 1.7% | 0.0% |
| COc1cccc(C(NC(C)=O)c2nc(/C=C/c3ccccc3)cs2)c1 (stereo not drawn) | . | . | 0.9 | . | . | 0.8% | -4.3% |
| COc1ccc(-c2nc(SCCOc3ccccc3Cl)n3[nH]c(=O)cc3n2)cc1 | . | . | -0.2 | . | 13 | 0.7% | -17% |
| CCOc1ccc(CCNC(=O)C2CCN(C(=O)N3CC(CC)Oc4ccccc43)CC2)cc1 (stereo not drawn) | . | . | 2.1 | . | 9 | -1.2% | -2.8% |
| COc1ccc(S(=O)(=O)N2CCC(C(=O)N[C@@H](C)C(=O)N3CCCC3)CC2)cc1 | . | . | -0.3 | . | 4 | 0.4% | 2.3% |
| Nc1nc2c(ncn2C2CC(O)C(CO)O2)c(=O)[nH]1 (stereo not drawn) | -5% | . | . | -3.5 | . | -0.5% | . |
| CC1=C(C(=O)N2CCCCCC2)CC(CC(=O)NC2CCCC2)C(=O)N1Cc1ccccc1 (stereo not drawn) | . | . | -0.8 | . | . | 1.0% | 0.6% |
| CC1C(=O)N(Cc2cn(Cc3ccco3)nn2)CCS(=O)(=O)N1Cc1ccc(-c2ccc(F)cc2Cl)cc1 (stereo not drawn) | . | . | 0.5 | . | . | 0.0% | 0.4% |
| N#Cc1ccc(CN2CC[C@@]3(CCCN(C(=O)c4ccncc4)C3)C2)cc1 | 20% | . | . | -2.6 | . | 0.2% | . |
| COc1ccccc1CNC(=O)c1cc2cccc3c2n1CCS3 | . | . | 2.8 | . | 9 | -0.9% | ? |
| O=C(CSc1nc2ccccc2o1)NCC(=O)c1ccccc1 | 6% | 16 | 0.3 | 0.0 | 14 | 0.2% | 2.5% |
| COc1ccc(NS(=O)(=O)c2ccc3nc(COc4ccc(C#N)cc4)[nH]c3c2)cc1 | -7% | 13 | 0.8 | 2.5 | 36 | -1.3% | -2.0% |
| Cc1ccc(S(=O)(=O)N2[C@@H](c3cccc(Cl)c3)C(C(=O)OC(C)(C)C)=CC[C@H]2c2ccc(C(C)C)cc2)cc1 | . | . | 1.0 | . | 69 | 3.6% | -2.2% |
| CCOC(=O)C1CCN(C2CC(=O)N(c3ccc(OCC)cc3)C2=O)CC1 (stereo not drawn) | 16% | 0 | -0.2 | -1.9 | -9 | -0.6% | 1.9% |
| COc1ccccc1C(=O)NC(=S)Nc1cccnc1Cl | 45µM* | -7 | 0.3 | 1.9 | 7 | 2.3% | . |
| COc1ccccc1C(=O)NCCn1ccc2ccccc21 | 13% | -12 | 0.9 | 2.5 | 39 | 0.4% | -2.5% |
| Cc1ccc(C)c(Cn2nnc(C(=O)NCc3ccc(Cl)cc3Cl)c2N)c1 | . | . | -0.4 | . | -17 | 20% | 2.4% |
| O=C1c2ccccc2NC(c2ccccc2)N1c1ccc(O)cc1 (stereo not drawn) | 9% | 0 | 0.2 | 3.5 | -12 | . | -17% |
| O=C(c1cc(-c2cccs2)nc2ccccc12)N1CCN(c2ccccc2)CC1 | 9% | 0 | -0.2 | -0.9 | 3 | -0.2% | . |
| O=C(/C=C/c1ccc([N+](=O)[O-])cc1)NCCSc1ccccc1 | -15% | -17 | 4.2 | 2.7 | -5 | 1.0%[38.3 µM] | -1.2% |
| Nc1nc(CCl)nc(Nc2ccccc2)n1 | 5% | 5 | 4.0 | -3.2 | 20 | -1.2% | 0.0% |
| CCOC(=O)NNC(=O)C12CC3CC(CC(C3)C1)C2 | 22% | 5 | 0.4 | 1.0 | 5 | -1.1% | . |
| CCC(C)[C@H](NC(=O)N1CCN(c2cccc(C(F)(F)F)c2)CC1)C(=O)OC (stereo partly drawn) | 14% | -17 | -0.9 | 0.8 | 2 | 16%[38.3 µM] | -1.8% |
| C[C@H](NC(=O)c1nc[nH]c1C(=O)NCc1ccccc1)c1ccccc1 | . | -14 | 1.5 | . | -5 | 6.0% | 0.9% |
| CC1CN(C(=S)SCCN2C(=O)CCC2=O)CC(C)O1 (stereo not drawn) | 6% | 22 | 1.4 | 1.6 | 4 | -0.4% | . |
| COc1cc(OC)cc(C(=O)NCCOc2ccccc2)c1 | 13% | 1 | 0.2 | 1.0 | 13 | 1.6% | -1.7% |
| COc1ccccc1NC(=S)N1CCCc2ccccc21 | 1% | 7 | -0.7 | -1.7 | 2 | 0.6% | 27% |
| N/C(=N\OC(=O)CN1C(=O)c2ccccc2C1=O)c1ccc(Br)cc1 | 0% | 17 | 1.5 | -0.3 | 11 | -0.2% | 0.4% |
| CCCCn1c(N)c(N(CC)C(=O)CCc2ccccc2)c(=O)[nH]c1=O | 2% | -9 | 0.2 | 3.9 | -3 | -0.7% | -1.8% |
| O=C(Nc1ccc(NC(=O)c2cc3ccccc3o2)cc1)c1ccco1 | 11% | 5 | -0.5 | 3.5 | -7 | 4.3% | . |
| FC(F)(F)c1ccccc1NC(=S)Nn1cnnc1 | 20µM* | 2 | -0.4 | . | -8 | 1.6% | -0.7% |
| Cc1cc(Nc2ccc(O)cc2)ccc1N | . | 5 | -0.8 | . | . | -0.3% | -2.2% |
| CCn1ncc(/C=C/C(=O)Nc2c(C)nn(CC)c2C)c1C | 10% | -6 | -0.1 | 0.4 | 5 | -1.9%[38.3 µM] | 0.7% |
| COc1ccc(C(CNC(=O)c2cccc3cccnc23)N(C)C)cc1 (stereo not drawn) | 7% | -5 | 1.2 | -0.3 | -15 | -0.2% | . |
| CC(=O)c1cccc(NC(=O)CSc2nnc(-c3ccc(S(=O)(=O)N4CCCC4)cc3)o2)c1 | 9% | -4 | -0.4 | -0.7 | 9 | ? | 1.5% |
| CCOc1ccc(CNC(=O)CN2C(=O)CSc3ccc(S(=O)(=O)N4CCOCC4)cc32)cc1OC | 13% | 0 | 0.5&-0.9 | 5.1 | -18&-11 | -1.2%&0.0% | -0.5%&0.7% |
| CC1(C(=O)NS(=O)(=O)c2cccc(C#N)c2)CCN1C(=O)Cc1cc(F)ccc1F (stereo not drawn) | . | . | -0.4 | . | . | -1.2% | 0.9% |
| Cc1ccc(S(=O)(=O)c2nnn3c2nc(NC2CCCCC2)c2sccc23)cc1 | . | . | 1.0 | . | 25 | 3.2% | ? |
| CCOC(=O)c1c(NC(=O)C2CC(Cl)=CCC2C(=O)O)sc2c1CCCCC2 (stereo not drawn) | -12% | 3 | 1.9 | . | 17 | -1.2% | -10% |
| COc1ccc(/C=C2\SC(=O)N(CCC(=O)N(C)C3CCS(=O)(=O)C3)C2=O)cc1 (stereo not drawn) | 10% | 23 | 0.1 | . | -2 | -0.4% | -2.7% |
| O=C(/C=C/c1ccco1)Oc1cc(Br)cc(/C=N/NC(=O)c2ccccc2O)c1 | 9% | -2 | 1.4 | 7.4 | 1 | ? | -11% |
| O=S1(=O)NC(CC2=CCCCC2)C2CCCCC2O1 (stereo not drawn) | 6% | -8 | 0.8 | -0.4 | 39 | 5.4% | 1.6% |
| NNC(=O)CN1C(=O)C2(OCCO2)c2ccccc21 | . | . | -0.4 | . | -11 | -0.1% | 2.4% |
| CC1CN(c2ccccc2)C(=O)CS1 (stereo not drawn) | 5% | 6 | -0.2 | -1.7 | 4 | -2.7% | 0.7% |
| O=C(O)c1ccccc1S(=O)(=O)CC(=O)N1CCCCC1 | 4% | -10 | -0.4 | 4.2 | 10 | 2.1% | . |
| O=C(CC1(O)C(=O)N(Cc2ccccc2Cl)c2ccccc21)c1ccco1 (stereo not drawn) | 8% | 6 | 1.4 | 0.0 | -5 | -0.9% | 0.7% |
| CN(C(=O)CSc1nnc(C2CC2)n1C)C1CCCc2ccccc21 (stereo not drawn) | . | ? | -0.4 | . | -15 | 1.4% | -2.1% |
| CNS(=O)(=O)c1cccc(C(=O)NCC(C)(C)N2CCCCC2)c1 | 13% | -19 | 0.1 | 0.3 | 4 | -0.6% | . |
| CCN(C(=O)COC(=O)c1cc(S(=O)(=O)N2CCOCC2)c(Cl)cc1Cl)C1CCS(=O)(=O)C1 (stereo not drawn) | ? | 1 | -0.4 | 0.4 | 10 | 1.5% | . |

Some of these compounds in order of number of heavy atoms, ascending:
| canonical_smiles | Sfp PPTase inh | TRPV1 potentiator | TRPML1 ag | Menin-MLL FL inh | TRPML1 inh | PINK1 expr mod | ClpP mod |
| --- | --- | --- | --- | --- | --- | --- | --- |
| CC1CN(c2ccccc2)C(=O)CS1 (stereo not drawn) | 5% | 6 | -0.2 | -1.7 | 4 | -2.7% | 0.7% |
| COc1ccc(/C=C2\SC(=O)N(CCC(=O)N(C)C3CCS(=O)(=O)C3)C2=O)cc1 (stereo not drawn) | 10% | 23 | 0.1 | . | -2 | -0.4% | -2.7% |
| CC(=O)c1cccc(NC(=O)CSc2nnc(-c3ccc(S(=O)(=O)N4CCCC4)cc3)o2)c1 | 9% | -4 | -0.4 | -0.7 | 9 | ? | 1.5% |

Screening results as filed in PubChem BioAssay.
